KCNQ2 block: KCNQ2 channel blockers in CHO-K1 cells – cell-based, FluxOR thallium flux, B-score, primary screen (AID 2156). 20 min; active compounds read low; only compounds with negative scores are shown here; some inactives read as strong as hits. actives 1.1% (n = 310,000). O88943. B-score at 10 µM;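 active = fluorescence ratio B-score at most minus 3 library SDs, with starting brightness B-score within 2 library SDs, cut at about -5.5 in these data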
Target sequence (O88943 whole entry, looked up): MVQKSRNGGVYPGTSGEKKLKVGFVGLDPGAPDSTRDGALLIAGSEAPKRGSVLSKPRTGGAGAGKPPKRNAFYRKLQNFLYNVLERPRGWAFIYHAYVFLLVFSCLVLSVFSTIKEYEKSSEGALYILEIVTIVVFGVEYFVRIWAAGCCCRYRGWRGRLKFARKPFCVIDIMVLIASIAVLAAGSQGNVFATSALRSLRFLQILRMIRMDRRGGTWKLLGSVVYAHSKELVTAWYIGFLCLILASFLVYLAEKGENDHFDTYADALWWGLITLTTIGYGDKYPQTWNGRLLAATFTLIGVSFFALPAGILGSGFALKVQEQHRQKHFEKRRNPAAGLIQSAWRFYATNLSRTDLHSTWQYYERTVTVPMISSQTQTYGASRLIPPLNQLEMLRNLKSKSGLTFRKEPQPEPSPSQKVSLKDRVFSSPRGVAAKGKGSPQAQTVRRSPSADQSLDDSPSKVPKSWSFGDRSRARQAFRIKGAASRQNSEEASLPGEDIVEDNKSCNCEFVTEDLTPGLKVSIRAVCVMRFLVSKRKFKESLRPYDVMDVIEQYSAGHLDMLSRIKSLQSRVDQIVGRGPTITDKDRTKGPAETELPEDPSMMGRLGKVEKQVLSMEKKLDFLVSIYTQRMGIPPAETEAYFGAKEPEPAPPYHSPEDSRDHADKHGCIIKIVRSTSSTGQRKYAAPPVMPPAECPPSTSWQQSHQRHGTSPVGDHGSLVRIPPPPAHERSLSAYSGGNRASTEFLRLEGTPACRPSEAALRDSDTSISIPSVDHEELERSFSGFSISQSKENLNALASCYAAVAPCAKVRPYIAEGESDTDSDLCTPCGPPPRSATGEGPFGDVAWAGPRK
KCNQ2 block baseline: also measured in KCNQ2 block; calls as there; B-score; measured here: initial fluorescence intensity artifact check;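 brightness before thallium and not channel activity; 0 = typical well and far values either way flag optical interference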
* hit, by the source's call; i = inactive; & = joins results of further samples.

Order of values: KCNQ2 block | KCNQ2 block baseline
Cc1nc(C(=O)Nc2ccc(Cl)cc2)sc1C1(C)CC(c2cccc([N+](=O)[O-])c2)=NO1 (stereo not given)
    i | 2.9
Cc1cccc(C(=O)c2cnc3ccccc3c2-c2ccccc2)c1
    -6.38* | -0.05*
COc1ccc(N2CC(C(=O)Nc3cc(C(F)(F)F)ccc3N3CCCC3)CC2=O)c(OC)c1 (stereo not given)
    i | -1.05
CCOc1ccc(-c2nc(C#N)c(NCc3ccc4c(c3)OCO4)o2)cc1
    i | -0.2
Clc1ccc(OCc2nn3c(C4CCCCC4)nnc3s2)cc1
    i | 0.3
COc1ccc(S(=O)(=O)N(CCc2ccccc2)CC(=O)NCCCO)cc1
    i | -2.2
CCCC(=O)Nc1nnc(Sc2ccc(N(C)C)cc2)s1
    i | 0.91
Cc1cccc(C)c1OCC(O)CN1CCN(c2ccccc2)CC1 (stereo not given)
    i | -2.43
CC1(C(=O)OCC(=O)NC(=O)NCc2ccccc2)CC1(Cl)Cl (stereo not given)
    i | 2.41
Cc1ccc(CCNC(=O)C2CC(c3cccc(F)c3)=NO2)cc1 (stereo not given)
    i | 4.79
Cc1ccc(S(=O)(=O)NC(=O)Nc2cc(C)on2)cc1
    i | -1.97
Cc1cc(C)c(S(=O)(=O)N(C)CC(=O)NCc2cccnc2)c(C)c1
    i | 0.4
Cc1ccccc1C(=O)NC(=S)Nc1ccccc1[N+](=O)[O-]
    i | 0.01
CC(Oc1ccc(-c2ccccc2)c(F)c1)c1ccn(S(=O)(=O)c2ccc(Cl)cc2)n1 (stereo not given)
    i | 0.03
Cc1ccc(S(=O)(=O)NCC(c2ccco2)S(=O)(=O)c2ccccc2)cc1 (stereo not given)
    i | 0.05
CC1(C)C2CCC(C2)C1(C)NC(=O)CNC1CCCCC1 (stereo not given)
    i | -0.01
CCOC(=O)CCC(NC(=O)c1ccccc1C(=O)NC(CCC(=O)OCC)C(=O)OCC)C(=O)OCC (stereo not given)
    i | 2.6
COc1ccc(Cl)cc1NC(=O)C[n+]1cccc(C)c1
    i | -0.05
O=C(NCCCSc1ccccc1)c1ccc(=O)[nH]c1
    i | -0.33
Cc1ccc(-c2cc(C(F)(F)F)c(C#N)c(SCC(=O)O)n2)cc1
    i | -1.42
O=C(Nc1ccn(Cc2ccccc2F)n1)c1ccc(COc2cc(Cl)ccc2Cl)o1
    i | 0.41
COc1ccc(OC)c(S(=O)(=O)N2CCCCCC2)c1
    i | -1.49
CC(NC(=O)c1cc2cc(Br)ccc2oc1=N)c1ccccc1 (stereo not given)
    i | 0.22
COc1ccccc1/C=C/c1nc(C#N)c(N(C)C)o1
    i | 0.06
CN(Cc1nc(C(c2ccccc2)c2ccccc2)no1)CC1COCCO1 (stereo not given)
    i | 1.06
CCOc1ccc(NC(=O)CCNS(=O)(=O)c2cccc3nsnc23)cc1
    i | -1.1
COc1cc(/C=N/n2c(C3CCCCC3)n[nH]c2=S)ccc1O
    i | 0.09
Cc1ccc(OCCOCCOc2cccc3cccnc23)c(Br)c1
    i | -0.97
Cc1nnc(Sc2cc(NCCO)c([N+](=O)[O-])c3nonc23)s1
    -7.52* | -3.97*
COc1ccc2ncc(S(=O)(=O)c3ccccc3)c(N3CCN(c4ccccc4)CC3)c2c1
    i | 1.01
O=C(NCCOc1ccccc1)C1Nc2ccc(C(F)(F)F)cc2C2c3ccccc3CC12 (stereo not given)
    i | 0.2
O=C(CSc1ccc2nnc(CCNC(=O)c3ccccc3)n2n1)Nc1ccccc1F
    i | 2.2
Cc1cc(Cl)c(OCCOCCN2CCNCC2)c(Cl)c1
    i | 2.52
CCOc1ccc(CCNC(=O)COC(=O)CCS(=O)(=O)c2ccc(C)cc2)cc1OCC
    i | 1.43
Brc1cccc(OCCN2CCc3ccccc3C2)c1
    i | 0.03
COc1ccc(-c2nn(-c3ccccc3)cc2C(=O)Nc2nccs2)cc1OC
    i | -2.29
CS(=O)(=O)N(CC(=O)NCc1ccco1)c1ccc(Cl)c(C(F)(F)F)c1
    i | 1.23
O=C(/C=C/c1ccc(Cl)c([N+](=O)[O-])c1)Nc1ccc(N2CCCC2)c(Cl)c1
    i | 0.94
CCn1c(SCC(=O)N2CCCC2)nc2c(c1=O)SC(C)C2 (stereo not given)
    i | 1.52
CN(C)c1nc(-c2ccc([N+](=O)[O-])cc2)cs1
    i | 0.78

As entered above.
CC(NC(=O)c1cc2cc(Br)ccc2oc1=N)c1ccccc1 (stereo not given) @ KCNQ2 block baseline = 0.22
COc1ccc(OC)c(S(=O)(=O)N2CCCCCC2)c1 @ KCNQ2 block baseline = -1.49
CCOc1ccc(NC(=O)CCNS(=O)(=O)c2cccc3nsnc23)cc1 @ KCNQ2 block baseline = -1.1
Brc1cccc(OCCN2CCc3ccccc3C2)c1 @ KCNQ2 block baseline = 0.03

(list continues)
Order of values: KCNQ2 block | KCNQ2 block baseline
Clc1ccc(-c2ncc3ccccn23)c(Cl)c1
    i | -1.58
COc1ccc(NC(=S)N2CCc3ccccc3C2)cc1OC
    i | -0.08
CC(C)C(c1nnnn1Cc1ccccc1)N(Cc1ccco1)Cc1cccs1 (stereo not given)
    -9.03* | -0.78*
CC(=O)Nc1nn(C)c2nc(C)cc(C)c12
    i | 0.67
CN1CCC(OC(=O)c2cc3cc(Br)ccc3oc2=O)CC1
    i | -0.45
CC1Oc2ccccc2N(CC(=O)NCCc2ccccc2)C1=O (stereo not given)
    i | -0.89
C/C(=N/OC(=O)c1ccc(Br)cc1)c1ccc(C)cc1
    i | -0.43
CC(C)C(=O)Nc1ccc(O)c(-c2csc(N)n2)c1
    i | -1.07
COc1ccc(NC(=O)c2noc3c2CCC3)cc1
    i | -0.69
Nc1c(C(=O)NCCN2CCOCC2)c2nc3ccccc3nc2n1-c1ccc2c(c1)OCO2
    i | -0.29
CC(=O)Nc1ccc(NC(=O)Nc2cccc(Cl)c2)cc1
    i | -0.31
Cc1cccc(C)c1NC(=O)NCCCN1CCN(c2ccccc2)CC1
    i | 1.37
Cc1csc(C(C)NC(=O)c2ccc(OC3CCN(CCc4ccccc4)CC3)cc2)n1 (stereo not given)
    i | 0.14
COc1cccc(CN2CCN(Cc3ccc(O)c(OC)c3)CC2CCO)c1 (stereo not given)
    i | 2.72
CCCCOP(=O)(OCCCC)C(O)c1ccc(Br)cc1 (stereo not given)
    i | 1.23
c1coc(-c2ccnc(-n3cccc3)n2)c1
    i | 0.05
COC(=O)c1cc(S(=O)(=O)N2CCCCC2)c[nH]1
    i | 2.03
COc1ccc(C2Nc3ccccc3NC3=C2C(=O)CC(C)(C)C3)cc1OC (stereo not given)
    i | -1.36
COc1ccc(C2CCCN2C(=O)Nc2ccc(C)c(C)c2)cc1OC (stereo not given)
    i | 1.37
CCc1cc(CNC(=O)c2ccc(OC3CCN(CCc4ccccc4)CC3)cc2)on1
    i | 0.43
CCOCCOC(=O)c1[nH]c2c(c1C)C(=O)CC(c1ccc(OC)c(OC)c1)C2 (stereo not given)
    i | -0.51
Cc1noc(C)c1C(=O)OCC(=O)Nc1ccccc1Oc1ccccc1
    i | -0.8
Cc1cccnc1NC(=S)NC(=O)c1cccs1
    i | -1.15
Cc1ccc2[nH]c3c(c2c1)CCNC3=O
    i | 1.16
CCc1cccc(NC(=O)C2CCCN(S(=O)(=O)c3cnc[nH]3)C2)c1 (stereo not given)
    i | 1.06
Cc1ccccc1-c1nc(CS(=O)(=O)CC(=O)NCc2ccc3c(c2)OCO3)c(C)o1
    i | 0.09
CC(C)c1ccc([N+](=O)[O-])cc1S(=O)(=O)N1CCN(C)CC1
    i | -0.95
CCc1ccccc1OCc1nc2ccc(S(=O)(=O)N3CCOCC3)cc2[nH]1
    i | -0.08
COc1ccc2c(CC(=O)Nc3ccc(OC)nc3)coc2c1
    i | 0.18
O=C1CC(N(C(=O)c2ccco2)c2cccc(Cl)c2)C(=O)N1c1cccc(Cl)c1 (stereo not given)
    i | 0.98
CC(=O)Oc1ccc(NC(=O)Cc2ccccc2)cc1
    i | 0.31
CCCNNC(=O)C(O)(c1cccc(C)c1)c1cccc(C)c1
    i | -1.22
CCc1cc2c(=O)n(CC(C)C)cnc2s1
    i | -0.53
COc1ccc(C(C[N+](=O)[O-])c2c(-c3ccccc3)cc3ccccn23)cc1 (stereo not given)
    i | -0.09
Cc1ncc(CO)c(/C=N/NC(=S)Nc2cccc(Cl)c2)c1O
    i | 1.04
CCN(CC(O)CON=C1c2ccccc2-c2ccccc21)S(=O)(=O)c1ccc(Cl)cc1 (stereo not given)
    i | -1.83
Cc1cc2sc3ccccc3c(=O)c2c(C)c1O
    i | 1.19
O=C(CSc1nnc2scc(-c3ccccc3)n12)Nc1nsc(-c2ccccc2)n1
    i | 0.85
COc1ccc(CC(=O)N/N=C(\C)CC(=O)Nc2ccc3c(c2)OCCO3)cc1OC
    i | -1.45
COc1ccccc1N1CCN(C(c2ccc(F)cc2)c2nnnn2C(C)C)CC1 (stereo not given)
    i | 0.48

2 records picked at random from those above, as already listed:
Order of values: KCNQ2 block | KCNQ2 block baseline
Cc1ccc2[nH]c3c(c2c1)CCNC3=O
    i | 1.16
Cc1cccnc1NC(=S)NC(=O)c1cccs1
    i | -1.15

Entries of single compounds from above:
Entry for CN(Cc1nc(C(c2ccccc2)c2ccccc2)no1)CC1COCCO1 (stereo not given) = KCNQ2 block: i; KCNQ2 block baseline: 1.06
Entry for CC(C)C(c1nnnn1Cc1ccccc1)N(Cc1ccco1)Cc1cccs1 (stereo not given) = KCNQ2 block: -9.03*; KCNQ2 block baseline: -0.78*
Entry for COc1ccc(-c2nn(-c3ccccc3)cc2C(=O)Nc2nccs2)cc1OC = KCNQ2 block: i; KCNQ2 block baseline: -2.29

Other records
Order of values: KCNQ2 block | KCNQ2 block baseline
COc1ccc(-c2noc(-c3cccnc3)n2)cc1OC
    i | 1.17
C[C@@H]1CC=C[C@H]2[C@H]1C(=O)N(Cc1ccccc1)[C@H]2c1ccc(C(F)(F)F)cc1
    i | 1.04
CCNC(=O)NCc1c(C)c(C)n(Cc2ccccc2)c1-n1cccc1
    i | 0.2
CCOC(=O)c1cnc2c(C)cc(Cl)cc2c1NCCCN1CCOCC1
    i | -0.72
CCOc1ccc(C(=O)Nc2c3c(nn2-c2ccccc2)CS(=O)(=O)C3)cc1
    i | 1.06
COC(=O)c1ccc(C(=O)OC)c(NC(=S)N2CCN(c3ccccc3)CC2)c1
    i | -0.64
C=C(C)n1c(=O)n(Cc2ccccc2C)c2ccccc21
    i | 0.26
CC1=NN(c2ccc(C)cc2C)C(=O)C1C(c1ccccc1)C1C(=O)N(c2ccc(C)cc2C)N=C1C (stereo not given)
    i | 0.81
CCCCN1C(=O)C(CC(=O)NCC)SC1=Nc1ccccc1 (stereo not given)
    i | -0.62
Cc1ccc(NC(=O)c2ccccc2N(C)S(=O)(=O)c2ccccc2)c(C)c1
    -8.42* | 0.87*
N#Cc1nc(-c2ccco2)oc1N1CCN(Cc2ccccc2)CC1
    i | -0.51
COc1cc2c(cc1OC)CN(C(=O)/C=C/c1cccc([N+](=O)[O-])c1)CC2
    i | -0.81
O=C1CC(c2ccccc2Cl)CC(O)=C1C=Nc1ccccc1 (stereo not given)
    i | 2.75
COc1ccc(Nc2ccccc2NC(=O)c2ccccc2Br)cc1
    -9.62* | 0.03*
Nc1nonc1OCCOCCOCCOc1nonc1N
    i | -1.05
CC(NC(=O)c1cccc(F)c1)C1CC2CCC1C2 (stereo not given)
    i | 0.44
N#Cc1nc(COc2ccccc2F)oc1NCCCn1ccnc1
    i | 1.15
C=CCNCCOc1ccc(C)cc1[N+](=O)[O-]
    i | -1.49
COc1ccccc1N1CCN(CC(O)COc2cccc3ccccc23)CC1 (stereo not given)
    i | -1.89&1.4
CCn1cc([N+](=O)[O-])c(C(=O)N2N=C(c3ccc(Cl)c(Cl)c3)CC2c2ccccc2O)n1 (stereo not given)
    i | 0.43

Ordered by the number under KCNQ2 block baseline (lowest first): 3 from the list above
Order of values: KCNQ2 block | KCNQ2 block baseline
Nc1nonc1OCCOCCOCCOc1nonc1N
    i | -1.05
COc1cc2c(cc1OC)CN(C(=O)/C=C/c1cccc([N+](=O)[O-])c1)CC2
    i | -0.81
CCCCN1C(=O)C(CC(=O)NCC)SC1=Nc1ccccc1 (stereo not given)
    i | -0.62

Further entries.
Order of values: KCNQ2 block | KCNQ2 block baseline
CCCC(=O)n1nc(-c2ccc(C)cc2)nc1NCc1ccco1
    i | 1.65
COc1ccc(C(=O)N[C@H](C(=O)Nc2ccc(S(=O)(=O)N3CCOCC3)cc2)C(C)C)cc1
    i | 0.19
Cc1ccccc1C(=O)N1CCC(C(=O)Oc2ccc(C#N)cc2)CC1
    i | 1.54
OC(CNCc1ccccc1)COc1ccccc1 (stereo not given)
    i | -0.37
COc1ccc(CCC(=O)N(c2nnc(-c3cccnc3)s2)C(C)C)cc1
    i | -0.2
COc1cccc2cc(C(=O)Nc3ccccc3C)/c(=N/O)oc12
    i | -0.46
CCN1C(=O)C(CC(=O)Nc2ccc(F)cc2)N(CCCN2CCN(c3ccc(F)cc3)CC2)C1=S (stereo not given)
    i | 2.39
Cc1nnc(SCC(=O)Nc2c(C)n(C)n(-c3ccccc3)c2=O)n1Cc1ccccc1
    i | 1.12
OCC1(Cc2ccc(Cl)cc2)CCN(Cc2ccccc2F)CC1
    i | 0.11
COc1ccc(C(=O)NC(C(=O)NCc2ccccn2)C(C)C)cc1 (stereo not given)
    i | 0.27
CCCCCCSc1nc(O)c(C2OC(=O)c3c2ccc(OC)c3OC)c(=O)n1-c1ccccc1 (stereo not given)
    i | 0.19
O=C(COc1ccc(Cl)cc1)N(Cc1ccccc1)c1ccccn1
    -9.06* | -0.79*
Cc1ccc(C(CC(=O)O)NC(=O)CN2C(=O)c3ccccc3C2=O)cc1 (stereo not given)
    i | -0.05
COc1c(C)cccc1C(=O)Nc1ccc(N2CCN(C(=O)c3ccccc3C)CC2)cc1
    i | -0.15
CCOc1ccc(/C=N/NC(=O)CN2CCCCC2)cc1OCC
    i | 1.21
O=C(Nc1cccc(Cl)c1)c1csc(-c2ccccc2)n1
    i | -0.38

Screens from PubChem.

An excerpt (hit frequency here may not be typical).
